Compound activity: PubChem BioAssay, National Center for Advancing Translational Sciences (NCATS)
miR-21 reporter – miR-21 reporter, rising signal; HeLa miR-21 FLuc reporter, luciferase, 48 h; Potency, µM (top dose mostly 38.3 µM), for inactives: at the top dose reporter change, positive = more light; 340,000 tested, under 10 active; AID 2288; active = well fitted rising curve with a large enough effect; inconclusive = small, poorly fitted or top-dose-only effect; inactive = no such curve, though single readings can be large or run the other way;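 also: % of control where 0% means no effect; miR-21 action dims this reporter so a rising signal means less miR-21 action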
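HeLa cells endogenously expressing miR-21, stably carrying CMV-driven firefly luciferase with a downstream miR-21 binding site, 2000 cells/well. Titrations up to approximately 40 uM, 48 hours; luciferase luminescence read.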
GLA inh pH 4.5 – alpha-galactosidase A (human) inhibition, pH 4.5 | purified enzyme, 4-MU-alpha-Gal fluorescence, pH 4.5 | activity change, negative = inhibition, % at 105 µM | 230,000 tested, under 10 active | AID 1467; inconclusive = small, poorly fitted or top-dose-only inhibition, or a rising curve; inactive = flat fitted curve, though single readings scatter; no compound was filed as active;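 also: 0% = full activity with enzyme and -100% = basal without enzyme; dose as in the result columns while the protocol names 77 µM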
Rango complex inh – prevents formation of the Rango-importin beta complex; hit rate 0.031% among 340,000; Potency, µM (top dose mostly 92.2 µM), without a hit: at the top dose inhibition of complex formation; Rango CFP/YFP FRET sensor + importin beta, 45 min; AID 540263; active = rising FRET ratio curve, often small or poorly fitted; inconclusive = mostly compound fluorescence or quenching in the first reads; inactive = flat curves in all reads;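 also: potency is read from the fitted curve at half-maximal effect; 0% = DMSO wells and 100% = buffer wells lacking importin beta; nearly all actives have a fitted effect of over 15% in size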
Target sequence (Q14974 whole entry, looked up): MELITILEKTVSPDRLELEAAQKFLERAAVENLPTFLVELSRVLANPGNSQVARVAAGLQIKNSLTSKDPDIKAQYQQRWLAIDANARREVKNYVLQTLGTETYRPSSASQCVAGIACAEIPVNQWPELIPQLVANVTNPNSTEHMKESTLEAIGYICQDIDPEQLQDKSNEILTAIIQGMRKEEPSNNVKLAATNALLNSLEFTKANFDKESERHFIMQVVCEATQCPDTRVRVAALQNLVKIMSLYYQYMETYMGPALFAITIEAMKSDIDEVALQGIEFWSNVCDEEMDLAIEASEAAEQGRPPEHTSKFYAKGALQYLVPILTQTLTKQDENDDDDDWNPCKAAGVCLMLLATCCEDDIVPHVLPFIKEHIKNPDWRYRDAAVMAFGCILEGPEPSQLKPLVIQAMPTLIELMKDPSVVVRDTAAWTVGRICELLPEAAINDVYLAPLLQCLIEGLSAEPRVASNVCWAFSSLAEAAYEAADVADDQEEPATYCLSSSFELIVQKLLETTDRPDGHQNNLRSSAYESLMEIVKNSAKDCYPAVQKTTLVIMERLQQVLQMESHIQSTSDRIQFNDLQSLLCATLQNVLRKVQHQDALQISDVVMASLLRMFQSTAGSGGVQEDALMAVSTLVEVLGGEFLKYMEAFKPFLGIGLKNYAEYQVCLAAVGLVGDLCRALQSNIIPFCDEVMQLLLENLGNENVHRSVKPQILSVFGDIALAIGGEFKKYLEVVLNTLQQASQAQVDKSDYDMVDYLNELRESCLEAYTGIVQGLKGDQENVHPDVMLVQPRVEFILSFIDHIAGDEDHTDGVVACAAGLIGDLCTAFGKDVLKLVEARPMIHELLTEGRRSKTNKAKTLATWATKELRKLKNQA
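Inhibition scored from the CFP 486 nm/YFP 530 nm FRET ratio 45 min after adding 0.125 microM importin beta to 50 nM Rango biosensor preincubated 5 min with compound (room temperature, PBS with DTT, Tween-20, BSA). No-importin wells as positive control.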
Rango dissoc inh – inhibitors of RanGTP-induced Rango-importin beta complex dissociation; Biochemical FRET Rango-importin beta, RanGTP-induced dissociation; Potency, µM (highest dose often 46.1 µM), without a hit: at the highest dose activity change, negative = inhibition; hit rate 0.071% among 340,000; AID 540253; active means falling FRET ratio curve, often poorly fitted, with flat reads before Ran was added; inconclusive means other falling curves, or compound fluorescence or quenching; inactive means flat or rising ratio curve;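 also: potency is read from the fitted curve at half-maximal effect; % of control where 0% means no effect; nearly all actives have a fitted effect of over 45% in size; -100% = wells without RanGTP and RCC1; the record marks most hits as doubtful in a second field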
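Rango/importin beta premix (0.1/0.25 uM final), PBS + 1 mM DTT + 0.02% Tween-20 + 0.1% BSA; cpd 5 min RT; FRET pre-read; + RanGTP-RCC1 (0.6 uM Ran, 2 mM GTP, 0.2 uM RCC1); 45 min RT; FRET post-read, ex 430, em 486/530 nm.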
An asterisk follows results filed as active; ? = inconclusive; nt = not tested or not shown; & = joins results of further samples; [ ] = remark or other dose.

Screens by letter – A = miR-21 reporter; B = GLA inh pH 4.5; C = Rango complex inh; D = Rango dissoc inh
molecule: CC1OC(OCC2OC(Oc3c(-c4ccc(O)cc4)oc4cc(O)cc(O)c4c3=O)C(O)C(O)C2O)C(O)C(O)C1O (configuration not stated)
  A = 1%; B = -3; C = 2.5%; D = 3%

molecule: COc1ccc2nc(SCC(=O)Nc3nccs3)[nH]c2c1
  A = 1%; B = 0; C = -0.1%; D = 0%

molecule: Cc1ccc(C)c(NC(=O)CCc2ccc(C)o2)c1
  A = -4%; B = nt; C = -0.8%; D = -7%

molecule: CCn1c(SCC(=O)Nc2nc(C)c(C(=O)OC)s2)nnc1C(C)C
  A = 0%; B = 1; C = -1.1%; D = 27%

molecule: CCn1cc(S(=O)(=O)c2cccc(C)c2)c(=O)c2cc(F)c(N3CCN(C)CC3)cc21
  A = -2%; B = nt; C = 0.9%; D = 3%

molecule: CC(O)C(O)C(O)C(O)C1NCCS1 (configuration not stated)
  A = 0%; B = 2; C = 0.3%; D = 27%

molecule: Cc1cccn2cc(-c3ccc(F)cc3)nc12
  A = -25%; B = 12; C = -3.7%; D = -5%

molecule: CCNC(=O)NC(=O)CSc1nc2ccccc2n1CC(C)C
  A = -8%; B = 3; C = 0.1%; D = 2%

molecule: CCN(CC)CCCN=Cc1c(O)n(-c2ccccc2C)c(=O)c2ccccc12
  A = -6%; B = -2; C = ?; D = -13%

molecule: O=C(CSc1ncn(-c2ccccc2)n1)Nc1ccc(Br)cn1
  A = -8%; B = -4; C = -0.1%; D = -2%

molecule: Cn1c(SCC(=O)n2c3c(c4ccccc42)CCCC3)nnc1-c1ccccc1
  A = 0%; B = 7; C = 3.5%; D = -9%

molecule: COc1ccccc1CNC(=O)COC(=O)c1nc(Cl)ccc1Cl
  A = nt; B = nt; C = 1.7%; D = -5%

molecule: COc1ccc2[nH]c(C(=O)O)c(CCN3C(=O)c4cccc([N+](=O)[O-])c4C3=O)c2c1
  A = 1%; B = -4; C = -0.8%; D = 0%

molecule: COc1ccc(C)c(S(=O)(=O)Nc2ccc(OCC(=O)O)cc2)c1
  A = 2%; B = -8; C = 6.2%; D = 9%

molecule: CCOC(=O)N1CCN(CC(O)COC2CC(C)CC(C)(C)C2)CC1 (configuration not stated)
  A = -5%; B = -7; C = 0.0%; D = 1%

molecule: Cc1cc(C)nc(SCc2cn3cc(Cl)ccc3n2)n1
  A = -40%; B = 13; C = -5.0%; D = -18%

molecule: CCOC(=O)Cc1csc(NC(=O)c2cccc(N3C(=O)CCC3=O)c2)n1
  A = -2%; B = 6; C = 3.0%; D = -4%

molecule: COc1ccc(NC(=O)C(NC(=O)c2ccccc2)C(C)C)cc1 (configuration not stated)
  A = -3%; B = 3; C = -1.6%; D = 26%

molecule: CCc1cc2c(SCC(=O)c3ccc(C)cc3)ncnc2s1
  A = 4%; B = -9; C = 0.3%; D = 10%

molecule: OCCCn1c(C2CCCN2c2nc(-c3ccc(Cl)cc3)cs2)nc2cc(C(F)(F)F)ccc21 (configuration not stated)
  A = nt; B = nt; C = 2.0%; D = -3%

molecule: CC1CCN(c2c(NCC3CCC(C(=O)Nc4ccccn4)CC3)c(=O)c2=O)CC1 (configuration not stated)
  A = 4%; B = -1; C = 1.1%; D = -3%

molecule: O=C(/C=C/c1cccs1)c1cc(Cl)ccc1O
  A = -3%; B = -1; C = -5.7%; D = -20%

molecule: COc1cccc(-c2c(C(=O)N/N=C/c3ccoc3)nnn2-c2nonc2N)c1
  A = -1%; B = nt; C = 0.6%; D = ?

molecule: CCOC(=O)N1CCN(C(=O)CN(c2cccc(C)c2)S(=O)(=O)c2ccc(C)cc2)CC1
  A = 0%; B = -3; C = -2.0%; D = -4%

molecule: COc1ccc(/C=C2\SC(=S)N(CCC(=O)Nc3cccc(O)c3)C2=O)cc1
  A = 0%; B = nt; C = 2.7%; D = 0%

molecule: C=CCSc1nc2ccccc2c2nc(-c3ccccc3)nn12
  A = -3%; B = -24; C = -1.3%; D = 7%

molecule: CCc1ccc(NC(=O)COc2ccc(F)cc2C(=O)c2cnn(-c3ccccc3)c2)cc1
  A = -48%; B = -7; C = 1.1%; D = 2%

molecule: CCOCCCNC(=O)CCSc1ccc(C)cc1
  A = -10%; B = 5; C = -1.2%; D = 12%

molecule: CCOCCOC(=O)c1ccc(-n2cnc(C)n2)nc1
  A = 3%; B = -23; C = -0.9%; D = -13%

molecule: O=C(O)Cc1ccc(NC(=O)c2cccs2)cc1
  A = 5%; B = 1; C = -1.3%; D = 1%

molecule: Nc1nnc(CCCCCCCCCCc2nnc(N)s2)s1
  A = 17%; B = -1; C = -1.2%; D = -11%

molecule: O=C(Cn1ccc2cc(S(=O)(=O)N3CCCCC3)ccc21)NCc1ccccc1F
  A = 3%; B = nt; C = -0.3%; D = 18%

molecule: Cc1ccc(SCC(=O)OCC(=O)NCCc2ccc(S(N)(=O)=O)cc2)c(C)c1
  A = nt; B = nt; C = -1.1%; D = -1%

molecule: CCN(CC)Cc1c(O)ccc2c(=O)c(-c3ccccc3Cl)coc12
  A = 1%; B = nt; C = 2.9%; D = 5%

molecule: O=C(CCC1CCN(Cc2ccccc2Cl)CC1)NC1CC1
  A = 0%; B = nt; C = 0.5%; D = 0%

molecule: Cc1cc(C)n2nc(SCc3cccc(F)c3)nc2n1
  A = -31%; B = nt; C = 1.1%; D = -10%

molecule: COc1ccc(-c2cc(CN3C(=O)c4ccccc4C3=O)on2)cc1
  A = nt; B = nt; C = 1.5%; D = 3%

molecule: Cc1cc(CN2CCCC(C(=O)Nc3ccc(-c4nc5ccccc5[nH]4)cc3)C2)n[nH]1 (configuration not stated)
  A = -46%; B = nt; C = -0.5%; D = 2%

molecule: CCOC(=O)c1c(-c2ccc(C)o2)csc1NC(=O)CSc1nnnn1-c1ccccc1
  A = 1%; B = 2; C = -2.8%; D = -11%

molecule: O=c1cc(-c2ccco2)oc2c1ccc1ccccc12
  A = 1%; B = 2; C = 5.9%; D = 14%

molecule: CCOC(=O)c1ccc(N/C=C/C(=O)c2ccc(OC)c(OC)c2)cc1
  A = -10%; B = -22; C = ?; D = ?

molecule: O=C(O)CCCCCCCCCCC1CCC(O)C1O (configuration not stated)
  A = nt; B = nt; C = -0.5%; D = 14%

molecule: COc1ccc(-c2nc3cc(C)ccn3c2NCC2CCCO2)cc1OC (configuration not stated)
  A = nt; B = nt; C = -3.2%; D = 7%

molecule: COc1ccccc1NC(=O)c1c(NC(=O)CCC(=O)O)sc2c1CCCCC2
  A = -2%; B = -8; C = -0.1%; D = -16%

molecule: CCc1cc(C(=O)Nc2ccc(S(=O)(=O)NC3=NCCCCC3)cc2)sc1C
  A = nt; B = nt; C = 0.5%; D = -12%

molecule: O=C(Nc1ccc2c(c1)OCO2)c1sc2cc(Cl)ccc2c1Cl
  A = -11%; B = 5; C = -3.7%; D = -17%

molecule: S=c1[nH]c2ccccc2c2ccccc12
  A = -2%; B = 3; C = -0.9%; D = -5%

molecule: COc1cc(C2NC(=O)NC(C)=C2C(=O)NCc2ccccc2)c(Cl)cc1O (configuration not stated)
  A = -1%; B = 0; C = 1.6%; D = 4%

molecule: CC(C(=O)OCC(=O)Nc1ccc2c(c1)OCO2)N1C(=O)c2ccccc2C1=O (configuration not stated)
  A = 0%; B = -5; C = -0.7%; D = 20%

molecule: CCOc1ccccc1NC(=O)CNS(=O)(=O)c1ccc2nc(C)sc2c1
  A = 3%; B = -10[21.1 µM]; C = -2.6%; D = -15%

molecule: O=C(CN1CCN(c2ccc(O)cc2)CC1)Nc1cc(S(=O)(=O)N2CCCCC2)ccc1Cl
  A = 7%; B = -8; C = -2.5%; D = -23%

molecule: CCOC(=O)c1[nH]c2c(c1C)C(=O)CC(c1ccco1)C2 (configuration not stated)
  A = 21%; B = 2; C = ?; D = -1%

molecule: O=C(CCCNC(=O)c1ccc(Cl)cc1)Nc1ccc(S(=O)(=O)Nc2ncccn2)cc1
  A = 4%; B = -1; C = 0.2%; D = -5%

molecule: Cc1ccccc1Nc1c(-c2cccnc2)nc2ccc(Br)cn12
  A = 17%; B = 2; C = 0.0%; D = -7%

molecule: CCN1CCN(C(=O)c2ccc3c(=O)n(Cc4ccccc4OC)c(=S)[nH]c3c2)CC1
  A = -5%; B = 11; C = -3.3%; D = -8%

molecule: CCOc1ccc(C(=O)Nc2cccc(NC(=O)c3cccs3)c2)cc1[N+](=O)[O-]
  A = 3%; B = -20; C = 4.2%; D = 1%

molecule: CCC(CC)c1nnc(NC(=O)c2ccc(N3CCCC3=O)cc2)s1
  A = -3%; B = -12; C = 0.1%; D = 1%

molecule: NS(=O)(=O)c1ccc(NC(=O)COc2ncnc3c2cnn3-c2ccccc2)cc1
  A = 1%; B = -17; C = -0.9%; D = -9%

molecule: CN1CCN(c2ccc(CNS(=O)(=O)Cc3ccc(Cl)cc3)cc2)CC1
  A = -1%; B = 2; C = -0.9%; D = 14%

molecule: CCOC(=O)c1oc2ccccc2c1NC(=O)c1cccc(OC)c1
  A = -12%; B = -9; C = -1.9%; D = -9%

Retrieved one by one from above (2):
Screens by letter – A = miR-21 reporter; B = GLA inh pH 4.5; C = Rango complex inh; D = Rango dissoc inh
molecule: NS(=O)(=O)c1ccc(NC(=O)COc2ncnc3c2cnn3-c2ccccc2)cc1
  A = 1%; B = -17; C = -0.9%; D = -9%

molecule: COc1cc(C2NC(=O)NC(C)=C2C(=O)NCc2ccccc2)c(Cl)cc1O (configuration not stated)
  A = -1%; B = 0; C = 1.6%; D = 4%

Additional results follow:
Screens by letter – A = miR-21 reporter; B = GLA inh pH 4.5; C = Rango complex inh; D = Rango dissoc inh
molecule: c1ccc(CCc2nn3c(-c4ccncc4)nnc3s2)cc1
  A = 18%; B = 3; C = -3.8%; D = 3%

molecule: O=C(O)c1cccc(COc2ccccc2Cl)c1
  A = -32%; B = -4; C = -0.1%; D = 1%

molecule: CCOC(=O)c1ccccc1NC(=O)c1cccnc1
  A = -1%; B = -2; C = 4.3%; D = -5%

molecule: COc1ccc(N/C(C)=C2/C(=O)C(=O)N(CCO)C2c2ccc([N+](=O)[O-])cc2)cc1 (configuration not stated)
  A = -6%; B = 4; C = 0.0%; D = -6%

molecule: CC1CCC(NC(=O)COC(=O)C2CC3CCCC(C2)C3=O)CC1 (configuration not stated)
  A = nt; B = nt; C = -1.1%; D = 28%

molecule: N/C(COc1ncn(-c2ccccc2)n1)=N\S(=O)(=O)c1ccc(Cl)cc1Cl
  A = 3%; B = 4; C = 8.5%; D = 6%

molecule: CC(=O)N1c2ccc(S(=O)(=O)NCCC(=O)N(C)Cc3ccccc3)cc2CC1C (configuration not stated)
  A = -1%&0%; B = nt; C = 7.0%; D = -12%

molecule: O=C(c1ccc(Br)o1)N(Cc1ccccc1)c1ccccn1
  A = -2%; B = 2; C = 0.9%; D = -6%

molecule: Cc1ccc(S(=O)(=O)N(CC(=O)NCc2cccs2)c2ccccc2)cc1
  A = nt; B = nt; C = -0.4%; D = 13%

molecule: O=C(C1=C[C@@H](C2CCCCC2)C[C@@H](OCCCCO)O1)N1CCOCC1
  A = -1%; B = 7; C = 4.8%; D = 13%

molecule: Cc1occc1-c1nnc(SCC(=O)N2CCCCC2)o1
  A = -22%; B = 2; C = -5.2%; D = 16%

molecule: CC1=C(C)/C(=N\OS(=O)(=O)c2ccccc2)C=CC1=O
  A = ?; B = -4; C = -0.3%; D = 2%

molecule: N#Cc1ccccc1Sc1ccccc1N
  A = -6%; B = -4; C = 5.4%; D = 2%

molecule: Cc1ccc(NC(=O)CCN2C(=O)c3ccccc3S2(=O)=O)cc1F
  A = nt; B = nt; C = 0.2%; D = 5%

molecule: O=C1C(=Nc2cccc(Cl)c2)CC(c2ccc(Cl)cc2)N1c1cccc(Cl)c1 (configuration not stated)
  A = -2%; B = -4; C = 2.8%; D = 11%

molecule: CC1(C)CC(N(Cc2ccc(F)cc2)C(=O)c2ccc(F)cc2)CCO1 (configuration not stated)
  A = -1%; B = -2; C = -0.2%; D = 14%

The list is partial; rates above refer to the full screens.
